A647 autofl = A647 region autofluorescence | Compound fluorescence, A647 channel (570/671 nm), Tris buffer | max dye-equivalent concentration, M | 59,000 tested, under 10 active; active means above 1 µM dye equivalent; inconclusive means 0.1 to 1 µM; inactive means 0.1 µM or less;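 note: values scaled relative to a standard on each plate; highest value over a series up to 38 µM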
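Tris 100 mM pH 8.0; cpd + A647 stds pin-transferred; 15 min RT; CCD imager, ex 570/em 671. Output = A647-equivalent conc. per cpd conc.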
AID923 = qHTS Assay for Allosteric/Competitive Inhibitors of Caspase-1: Spectroscopic Profiling in AFC Spectral Region; AID 923, 2007; compound fluorescence, AFC spectral region (405/520 nm); almost no hit is shown here; Potency, µM (doses to about 57.5 µM), without a hit: at the highest dose fluorescence increase, hits mostly activators; actives 1.1% (n = 75,000); active = well fitted activation curve with a large enough effect; inconclusive = small, poorly fitted or top-dose-only effect;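 note: potency is the fitted concentration of half-maximal effect; 0% is about no effect; scaled to a free AFC standard on each plate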
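Compound autofluorescence profiled at 405 nm ex/520 nm em during kinetic caspase 1 run (50 nM enzyme, 5 uM Ac-WEHD-AFC, HEPES pH 7.5, 10 mM DTT). Titration up to 57 uM; baseline from regression intercept, normalized to AFC standard curve.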
A488 autofl = compound fluoresces in the A488 spectral region; compound autofluorescence, A488 spectral region, dye equivalency; active compounds read high; max dye equivalency, M; actives 0.1% (n = 59,000); active = above 10 nM dye equivalent; inconclusive = 1 to 10 nM; inactive = 1 nM or less; about half of its hits are not listed in these tables;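 note: highest value over a series up to 38 µM; compound alone in buffer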
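Compound autofluorescence was read in 100 mM Tris pH 8.0 after 15 min at room temperature, ex 480 nm/em 540 nm. Intensities were converted to A488 dye-equivalent concentration using an on-plate six-point A488 standard curve.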
Resorufin fluor = compounds fluorescent in resorufin spectral region. max dye-equivalent concentration, M. actives 0.04% (n = 59,000). Compound fluorescence, resorufin region 547/598 nm, buffer; active compounds read high. AID 588; active = above 10 nM dye equivalent; inconclusive = 1 to 10 nM; inactive = 1 nM or less; a few of its hits are not listed in these tables; note: highest value over a series up to 38 µM
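Intrinsic fluorescence profiled in the resorufin window (ex 547 nm, em 598 nm) after 15 min at room temperature in pH 8.0 Tris buffer (100 mM); responses normalized against a six-point resorufin standard series as dye-equivalent concentration.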
TSHR ag = TSH receptor (human) agonism; HEK293-CNG-TSHR cells (CNG channel as cAMP sensor), membrane potential dye, cAMP; Potency, µM (doses to about 57.1 µM), for inactives: at the top dose activation, most hits filed as activators; actives 0.48% (n = 73,000); AID 926; active = well fitted activation curve of enough size with the parental cells flat; inconclusive = any curve in the parental cells; inactive = parental cells flat and receptor cells flat or falling; note: potency is the fitted concentration of half-maximal effect; % of control where 0% means no effect; weak receptor curves with flat parental cells got no call and are not listed
Target sequence (P16473 whole entry, looked up): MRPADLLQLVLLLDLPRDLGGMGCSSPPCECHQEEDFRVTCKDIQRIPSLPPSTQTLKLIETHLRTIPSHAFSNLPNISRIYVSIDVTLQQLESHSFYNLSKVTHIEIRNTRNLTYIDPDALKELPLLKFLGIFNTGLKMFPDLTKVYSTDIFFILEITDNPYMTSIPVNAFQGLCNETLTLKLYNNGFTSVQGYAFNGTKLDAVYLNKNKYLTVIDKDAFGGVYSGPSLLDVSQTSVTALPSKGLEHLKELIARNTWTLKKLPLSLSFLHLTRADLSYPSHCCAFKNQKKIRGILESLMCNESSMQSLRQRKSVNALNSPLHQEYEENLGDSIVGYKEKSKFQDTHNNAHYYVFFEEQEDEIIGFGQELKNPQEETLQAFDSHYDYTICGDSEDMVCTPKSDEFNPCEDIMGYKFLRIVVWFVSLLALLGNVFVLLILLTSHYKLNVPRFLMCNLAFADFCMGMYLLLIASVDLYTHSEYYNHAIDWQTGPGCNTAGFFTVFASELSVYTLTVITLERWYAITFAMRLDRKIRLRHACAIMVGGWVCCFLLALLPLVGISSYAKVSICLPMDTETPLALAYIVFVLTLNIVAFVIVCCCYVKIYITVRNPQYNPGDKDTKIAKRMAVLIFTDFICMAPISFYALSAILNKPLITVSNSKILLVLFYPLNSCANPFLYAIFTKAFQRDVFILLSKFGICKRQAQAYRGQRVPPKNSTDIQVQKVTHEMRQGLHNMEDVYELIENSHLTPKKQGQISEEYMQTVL
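cAMP rise detected as CNG-channel membrane depolarization by fluorescent dye (emission 590 nm), 30 min after compound, following 60 min dye loading containing 100 uM RO 20-1724 at room temperature. Cells: TSHR/CNG HEK 293, with parental CNG HEK 293 as control.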
Active calls of the source: *; i = inactive; ? = inconclusive; · = no result given; & = joins results of further samples; [ ] = dose if it differs, or a comment. This is a subset, so the mix of outcomes need not match the whole.

SMILES | A647 autofl | AID923 | A488 autofl | Resorufin fluor | TSHR ag
O=C(O)CN1C(=O)CC(Cc2ccccc2)C1=O (centres undefined) | 1e-09 | -0.1% | i | i | 16%
Cc1c(Cl)c(S(N)(=O)=O)cc(S(N)(=O)=O)c1NC(=O)c1ccc(Cl)cc1 | 3.2e-08 | -1.0%[11.5 µM] | i | i | 3%[11.4 µM]
Cc1n[nH]c(C)c1S(=O)(=O)N1CCCC(C(=O)N2CCc3ccccc32)C1 (centres undefined) | 4.3e-09 | 1.1% | i | i | -1%
CCCCn1c(CNC(=O)C(C)(C)C)nc2ccccc21 | · | 4.0% | · | · | 21%
NCCNS(=O)(=O)c1cccc2cnccc12 | 1e-09 | 3.6%&-4.9% | i | i | -3%&4%
COc1ccc(COC2OC[C@]3(C)[C@H]4C5=C(CN3C(=O)OC(C)(C)C)[C@H](C)C(CO)C(CO)C5CC[C@@H]24)cc1 (some centres undefined) | · | 0.2% | · | · | -4%
C[C@@]12CCC(=O)C=C1CC[C@@H]1[C@@H]2[C@H](O)C[C@]2(C)[C@@H]1CC[C@]2(O)C(=O)CO | 1.4e-08&1e-09 | -2.6%[25.7 µM] | i | i | -34%[inhibitor][25.6 µM]
COc1ccc(N2CCN(C(=O)C34CCC(C)(C(=O)C3)C4(C)C)CC2)cc1 (centres undefined) | · | -0.7% | · | · | -1%
CN1CCN(C(=O)c2cc(Cl)ccc2Cl)CC1 | · | 4.1% | · | · | ?
CCCC(=O)N1CCN(c2nc(CC(C)C)c3c(c2C#N)CCC3)CC1 | 1.3e-09 | · | i | i | ·
CC(C)(C)n1nnnc1CN(Cc1ccco1)Cc1cc2cc3c(cc2[nH]c1=O)OCO3 | 4.5e-08 | 0.0% | i | i | -1%
CCOC(=O)c1ccc(NC(=O)c2c(O)c3ccccc3n(C)c2=O)cc1 | 3.9e-08 | 0.3% | i | i | 8%
O=C(CN1C(=O)c2ccccc2C1=O)NCc1ccncc1 | 3.8e-08 | · | i | i | ·
Cc1nn(-c2ccccc2)c2nc(=O)n(-c3ccccc3)cc12 | 1e-09 | -0.6% | i | i | -2%
CCOC(=O)c1c(N)sc(C(=O)N(C)C)c1C | 9.1e-09 | 0.4% | i | i | -1%
COCCNC(=O)[C@H](C)[C@@H]1C[C@@]1(C)[C@@H](NC(=O)OCc1ccccc1)c1ccccc1 | · | -0.3% | · | · | 3%
O=C(C1CCCN1S(=O)(=O)c1ccc(Cl)cc1)N1CCOCC1 (centres undefined) | 1e-09 | -0.3% | i | i | 6%
CCOc1ccc(N2CC(C(=O)Oc3ccccc3)CC2=O)cc1 (centres undefined) | 3.1e-08 | -0.6% | i | i | ?
COC(=O)c1ccccc1NC(=O)C1CCCN(c2nnc(-n3cccc3)s2)C1 (centres undefined) | · | 3.5% | · | · | ?
Cc1ccc(NC(=O)c2cnn(-c3ccccc3)c2NC(=O)c2ccco2)cc1 | 3.2e-09 | 0.5% | i | i | 10%
COC(=O)CSc1nnc(-c2ccc(S(=O)(=O)N3CCCCC3)cc2)o1 | 1.7e-08 | 0.0% | i | i | -1%
COc1ccccc1NC(=O)C1C2C=CC(O2)C1C(=O)O (centres undefined) | 3.4e-08 | 0.2% | i | i | -1%
CCOc1ccccc1NC(=O)Nc1cc(OC)ccc1OC | 1e-09 | 1.2% | i | i | -3%
Cc1cccc(/N=C/c2c(O)[nH]c3ccccc23)n1 | · | -0.1% | · | · | 19%
O=C(COC(=O)c1ccc(Cl)c(S(=O)(=O)N2CCCC2)c1)NC1CCCC1 | 1e-09 | 0.1% | i | i | 12%
Cc1sc2nc(SCC(=O)NCc3cccs3)[nH]c(=O)c2c1C | 1.8e-08 | -0.7% | i | i | -3%
CNC(=O)OCc1cccc(COC(=O)NC)n1 | 1e-09 | -0.2% | i | i | -12%
CCOC(=O)Nc1ccc(S(=O)(=O)Nc2cc(C)on2)cc1 | 1e-09 | 1.6% | i | i | -3%
CC(C)CCn1c(N2CCN(c3cccc(Cl)c3)CC2)nc2c1c(=O)[nH]c(=O)n2C | 2.6e-08 | 0.0% | i | i | 12%
NC(=NCCCCCCN=C(N)/N=C(\N)Nc1ccc(Cl)cc1)/N=C(\N)Nc1ccc(Cl)cc1 | 2.2e-09 | -1.2% | i | i | ?
CCc1nnc(NC(=O)CCN2C(=O)c3ccccc3C2=O)s1 | 7.1e-09 | -0.1% | i | i | 0%
CCOC(=O)N1CCN(C(=O)c2ccc(C)c(S(=O)(=O)Nc3ccccc3)c2)CC1 | 3.5e-08 | 3.2% | i | i | 9%
Cc1ccc(NS(=O)(=O)c2ccc(CCC(=O)O)cc2)cc1 | 1e-09 | 0.0% | i | i | 5%
CCC(C)N1CC23C=CC(O2)C(C(=O)OCc2ccccc2)C3C1=O (centres undefined) | 1.5e-08 | 2.1% | i | i | 8%
O=C(NCc1ccncc1)/C(=N/O)c1ccccc1 | 4.6e-08 | -0.9% | i | i | 0%
C=CCN=C1SC(C)C(=O)N1S(=O)(=O)c1ccccc1 (centres undefined) | 5.8e-08 | -1.7% | i | i | 3.2µM*
O=C1C2=CC[C@H]3C(=O)N(C[C@@H]4CCCO4)C(=O)[C@@H]3[C@@H]2[C@H](O)[C@@H]2O[C@H]12 | · | 9.4%[11.5 µM] | · | · | -5%[11.4 µM]
COc1ccc(N2C(=O)CC(NC3CC3)C2=O)cc1 (centres undefined) | 4.4e-09 | 1.0% | i | i | 12%
CCc1ccc2c(CN(CC)Cc3nc4ccccc4c(=O)[nH]3)cc(=O)oc2c1 | 5.3e-09 | 4.4% | i | i | ?
O=C(Nc1ccccc1N1CCCCC1)c1ccc2nccnc2c1 | 2.2e-09 | -0.3% | i | i | ?
CC(Oc1ccc(Cl)cc1Cl)c1nc(-c2ccccn2)no1 (centres undefined) | · | -1.4% | · | · | 23%[11.4 µM]
O=C(SCc1cccc2ccccc12)c1ccc(Cl)cc1 | 1e-09 | 4.0%[11.5 µM] | i | i | 3%[11.4 µM]
Cn1nc(-c2ccc(C(=O)Nc3cccnc3)cc2)c2ccccc2c1=O | 1e-09 | -1.1% | i | i | -7%
Cc1nc(N)c(C#N)c(-c2cccnc2)c1C | 1.3e-09 | 5.6% | i | i | 6%
COc1ccc(N2CCN(CCCNC(=O)c3cc4sccc4n3C)CC2)cc1 | · | 0.8% | · | · | -3%
Cn1c(=O)c2c(nc(Br)n2C)n(C)c1=O | 4.4e-08 | -1.9% | i | i | -2%
CCn1c(SCC(=O)NCCOC)nc2sc3c(c2c1=O)CCCC3 | 2.2e-08 | 0.9% | i | i | 5%
C/C(CCN1CCc2nc(-c3ccccc3)c(-c3ccccc3)cc2C1)=N\OC[C@@H](C)[C@H](OCc1ccccc1)C(C)C | · | -1.8%[11.5 µM] | · | · | 0%[11.4 µM]
Cn1cnnc1SCc1ccc(C#N)cc1 | 2e-09 | 0.2% | i | i | 2%
Cc1cc(C(=O)Nc2nc3c(s2)CCCC3)no1 | 2e-08 | 1.4% | i | i | -12%

The list goes on:
SMILES | A647 autofl | AID923 | A488 autofl | Resorufin fluor | TSHR ag
Cc1ccc(C(C)C)c(OCCNS(C)(=O)=O)c1 | 3.9e-09 | -0.7% | i | i | 1%
CCOC(=O)NCc1ccc(Cl)c(Cl)c1 | 1e-09 | 1.3% | i | i | ?
CCCCN(C(=O)NC(=O)Nc1ccccc1OCC)S(C)(=O)=O | 4.3e-08 | 0.3% | i | i | -2%[11.4 µM]
Cc1ccc(NC(=O)C2CCCN2S(=O)(=O)c2ccc(F)cc2)c(C)c1 (centres undefined) | 4.9e-09 | 0.9% | i | i | -3%
CCC(Oc1ccccc1)C(=O)Nc1nc2ccccc2[nH]1 (centres undefined) | 1e-09 | -2.0% | i | i | 8%
Cc1cc(NC(=O)CSc2nc3c(c(=O)n2CCc2ccccc2)SC(C)C3)no1 (centres undefined) | · | -4.1% | · | · | 23%
COc1ccc(NC(=O)CSc2nnc(CNC(=O)c3ccco3)o2)c(OC)c1 | 3e-08 | -0.1% | i | i | -3%[11.4 µM]
COc1ccc(C(c2nnnn2C2CCCCC2)N2CCN(c3ccccc3)CC2)cc1 (centres undefined) | 1.9e-08 | 1.9% | i | i | ?
CCOC(=O)c1c(C)c(C(=O)NCC2CCCO2)c(C)n1CC (centres undefined) | 1e-09 | -1.4% | i | i | 1%[11.4 µM]
O=C(Nc1cccc2c1CCCC2)C1CCN(C(=O)NC2CCCCC2)CC1 | 3.7e-09 | 4.1% | i | i | 15%

An excerpt of these results, with each value named.
CCC(Oc1ccccc1)C(=O)Nc1nc2ccccc2[nH]1 (centres undefined)
  A647 autofl: 1e-09 | AID923: -2.0% | A488 autofl: i | Resorufin fluor: i | TSHR ag: 8%
Cc1cc(NC(=O)CSc2nc3c(c(=O)n2CCc2ccccc2)SC(C)C3)no1 (centres undefined)
  A647 autofl: · | AID923: -4.1% | A488 autofl: · | Resorufin fluor: · | TSHR ag: 23%
COc1ccc(NC(=O)CSc2nnc(CNC(=O)c3ccco3)o2)c(OC)c1
  A647 autofl: 3e-08 | AID923: -0.1% | A488 autofl: i | Resorufin fluor: i | TSHR ag: -3%[11.4 µM]
COc1ccc(C(c2nnnn2C2CCCCC2)N2CCN(c3ccccc3)CC2)cc1 (centres undefined)
  A647 autofl: 1.9e-08 | AID923: 1.9% | A488 autofl: i | Resorufin fluor: i | TSHR ag: ?

The list continues:
SMILES | A647 autofl | AID923 | A488 autofl | Resorufin fluor | TSHR ag
O=C1CC(c2ccco2)CC(O)=C1C=NCCN1CCN(C2CC(=O)N(c3ccccc3)C2=O)CC1 (centres undefined) | 2.5e-08 | · | i | i | ·
CN1CCN(S(=O)(=O)c2ccc(Br)s2)CC1 | 2e-08 | 0.4% | i | i | 4%
CCCCNC(=O)NC1C(NC(=O)NCCCC)N(C)C(=O)N1C (centres undefined) | · | -2.9% | · | · | -3%
O=C1CC(c2nc3ccccc3[nH]2)CN1c1ccccc1F (centres undefined) | · | -6.2% | · | · | 1%
Cc1ccc2cc3cc(C(=O)NCCN4CCOCC4)oc3nc2c1 | 3.5e-09 | 1.2% | i | i | 7%
CC12C(=O)N(n3cnnc3)C(=O)C1C1C=CC2C1 (centres undefined) | 2.9e-09 | -2.3% | i | i | 3%
O=C(O)Cc1cccnc1 | 5.7e-08 | -0.9%[11.5 µM] | i | i | -3%[11.4 µM]
CCOC(=O)C1CCCN(C(=O)CCn2nc(-c3ccccc3)ccc2=O)C1 (centres undefined) | 7e-09 | -2.2% | i | i | 5%
CCCn1c(SCCN2C(=O)c3ccccc3C2=O)n[nH]c1=O | 6.7e-09 | 0.5% | i | i | 6%
O=C(c1ccco1)N1C2C=CC(C2)C1(C(F)(F)F)C(F)(F)F (centres undefined) | 1e-09 | -2.2% | i | i | 26%[11.4 µM]
CCc1ccc(NC(=O)C2CCCCC2C(=O)O)cc1 (centres undefined) | · | 2.4% | · | · | 6%
C=C(C)C1Cc2c(C)nn(-c3nc(C)cc(C)n3)c2C1 (centres undefined) | 5.1e-08 | · | i | i | ·
CN1CC[n+]2c(CN3C(=O)c4ccccc4C3=O)csc21 | 2.6e-08 | 0.1% | i | i | 2%
Cc1ccccc1NC(=O)CN(c1ccc(F)cc1)S(C)(=O)=O | 1e-09 | -1.7% | i | i | ·
O=C(c1cccc(C(=O)N2CCN(Cc3ccccc3)CC2)c1)N1CCN(Cc2ccccc2)CC1 | 1e-09 | -0.2% | i | i | ?
c1ccc(-c2oc3ncnc(NCCCN4CCOCC4)c3c2-c2ccccc2)cc1 | 1e-09 | 0.2% | i | i | ?
Cc1ccc(C(=O)Nc2ccccc2C(=O)NC2CCCCC2)cc1S(=O)(=O)N1CCOCC1 | 2.6e-08 | -3.1% | i | i | ?

Assay outcomes from PubChem.
